Screens deposited in PubChem BioAssay by several laboratories.
PrP UTR inh: inhibition of PrP 5' UTR reporter expression. cell-based PrP 5' UTR mRNA reporter, plate reader. hit rate 0.35% among 340,000. AID 488862, 2010. inhibition, % (no concentration beside the values);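 active = every replicate at 50% or more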;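 also: 0 = median of the neutral control wells; tested in H4 reporter cells; numbers are from one replicate; inactives centre near -14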
Mtb hypoxia inh: PubChem AID 1159583 | M. tuberculosis hypoxia-regulated fluorescent reporter, fluorescence | fluorescence inhibition, % (concentration not given with the values) | hit rate 0.1% among 300,000;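 active = 35 to 45% if threefold the growth effect, above 45% if 1.5-fold the growth effect; inactive = the rest, general growth blockers included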;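 also: wells of about 50 µL received 100 nL stock; 0% = vehicle wells and 100% = reference inhibitor wells; whole bacteria with a GFP reporter of the hypoxia response; strong numbers were not always called active; many hits fall short of the cut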
Bead autofluor: compound fluorescence in toxin protease inhibitor counterscreen; compound autofluorescence counterscreen, microsphere flow cytometry; active compounds read high; fluorescence intensity (concentration not given with the values); hit rate 3.1% among 360,000; AID 624483;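 active = at least 3 SD above the mean of all compounds, about 16000 in these data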;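 also: 100 nL of 1 mM stock went into each well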
Sa RN4220 lethal: growth inhibition of S. aureus RN4220, primary screen, OD600; 16 h; AID 1259311, 2017; hit rate 0.33% among 330,000; inhibition, % (concentration not given with the values);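 active = z-score of -3 or lower and OD600 up to 0.18 on both plates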;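 also: plate controls were untreated cells for no effect and reference antibiotic for full effect; stock transfer was 100 nL into about 80 µL; one replicate is shown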
BJeLR viability: MLPCN primary cell-based screen for lethality selective to Ras in HRASV12 cells | inhibition, % (concentration not given with the values) | BJeLR (HRASV12) viability, CellTiter-Glo ATP luminescence, 48 h; reference of the scale not given here | hit rate 0.17% among 300,000;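 active = replicate mean above 50%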;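 also: 50 nL library stock added to about 25 µL; numbers are from one replicate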
ugtP null kill: growth inhibition of ugtP-null S. aureus, primary screen, RN4220 ugtP deletion, OD600; growth inhibition, % (no concentration beside the values); hit rate 0.54% among 330,000; 16 h; some inactives read as strong as hits;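 active = z-score under -3 and OD600 up to 0.15 on both plates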;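 also: plate controls were untreated wells for no effect and antibiotic for full effect; wells of about 80 µL received 100 nL stock; the first replicate is given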
Mtb hypoxia inh growth: second read-out of Mtb hypoxia inh, no call of its own (marks repeat the call); growth inhibition, %; measured here: M. tuberculosis growth (absorbance);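 0% = vehicle and 100% = reference antibiotic; read after six days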
Starred values were filed as active, the others as inactive; . = no result given.

SMILES | PrP UTR inh | Mtb hypoxia inh | Mtb hypoxia inh growth | Bead autofluor | Sa RN4220 lethal | BJeLR viability | ugtP null kill
CC(CCc1ccccc1)NC(=O)COC(=O)C(CCC(N)=O)NC(=O)c1ccc(F)cc1 (stereo not given) | -30 | 5 | -2 | 4234 | 2.7 | . | 5
O=C(COC(=O)CNC(=O)C1CCCCC1)Nc1ccccc1Cl | -14 | 19 | 10 | 3958 | 9.8 | . | 5
CCCn1c(SCC(=O)N(C)C2CCS(=O)(=O)C2)nc2sc3c(c2c1=O)CCC3 (stereo not given) | -8 | -1 | 8 | 4016 | -2.0 | . | -6
COC(=O)c1cccc(C23CC4(C2)C(CN(Cc2ccc(C(F)(F)F)cc2)C4c2ccccc2)C3c2ccc(Cl)nc2)c1 (stereo not given) | . | -5 | 3 | . | 1.3 | . | 4
COc1ccc(-n2c(=O)[nH]cc(C(=O)Nc3ccc4c(c3)OCO4)c2=O)cc1OC | -6 | 9 | 12 | 5378 | 2.9 | 2 | 4
Cc1cc2nc(CCl)cc(=O)n2[nH]1 | -15 | 9 | 11 | 4423 | 5.5 | 2 | 7
Cc1c(C)n(C)c2ccc(C(=O)Nc3cccc4ccccc34)cc12 | -21 | . | . | 2924 | 5.2 | 8 | -7
CC(=O)C(/C=N/c1cc(-c2ccc(C)cc2)nn1-c1ccccc1)=C(\C)O | -82 | 10 | 3 | 2135 | 3.4 | 0 | 11
N#CC(=C=[N-])c1nc2ccccc2nc1-[n+]1cccc(NC(=O)c2cccs2)c1 | -9 | 0 | 3 | 4622 | 3.6 | 10 | 3
Cc1ccc(N2C(=O)CC(N3CCN(C)CC3)C2=O)cc1 (stereo not given) | . | 7 | 9 | . | 11 | -2 | 9
CC(C)CCN1C(=O)c2ccc(C(=O)Nc3c[nH]c(=O)[nH]c3=O)cc2C1=O | -15 | 4 | 19 | 4841 | 5.1 | . | 7
CCc1nc2cc(Cl)c(Cl)cc2[nH]1 | -3 | 1 | 4 | 23720* | -0.1 | 4 | -12
COc1cc2nc(C3CCC3)n(NC(=O)c3ccco3)c(=O)c2cc1OC | -2 | 14 | 14 | 4252 | 11 | 35 | 4
CCOc1ccc(NC(=O)CN2CCN(CC(=O)Nc3ccc4c(c3)OCO4)CC2)cc1 | -4 | . | . | 2700 | 3.8 | -7 | 0
CC(=O)c1ccc(NC(=O)CSc2ccsc2[N+](=O)[O-])cc1 | -16 | 2 | -2 | 2015 | 3.1 | 0 | -7
CCc1ccc(CNCc2ccc(F)cc2)cc1 | -21 | 20 | 15 | 2119 | 1.6 | -4 | -3
CCCOC(=O)Nc1ccc(C(N)=O)cc1 | -17 | -3 | 0 | 2581 | 3.1 | 3 | -2
COc1cccc(NC(=O)N2CCN(S(C)(=O)=O)CC2)c1 | -15 | 7 | 3 | 5245 | 3.9 | -7 | 3
CC(C)NC(=O)c1ccc2c(=O)n(C3CCCC3)c(=S)[nH]c2c1 | -6 | 4 | -2 | 9824 | 6.7 | 13 | -2
CC(=O)c1cc2c(cc1NC(=O)CN1CCCCCC1)OCO2 | -13 | 7 | 3 | 3756 | 1.2 | 3 | -6
COc1ccc(C=NNC(=O)c2ccc(COc3cccc4cccnc34)cc2)cc1O | . | -7 | -10 | . | 3.9 | . | 4
CC(=O)c1ccc(NC(=O)c2cc3ccccc3o2)cc1 | -35 | -6 | 1 | 4136 | 4.5 | -10 | -5
O=c1c2ccccc2nc2n1CCS2(=O)=O | -6 | . | . | 3721 | . | 17 | .
CC(=O)Nc1ccc(C(C)=NNc2nc(Nc3cccc4ccccc34)nc(N3CCOCC3)n2)cc1 | . | 5 | 10 | . | 3.1 | . | -9
COc1ccc(C(=O)/C=C2\NCCc3cc(OC)c(OC)cc32)cc1OC | 9 | -8 | 10 | 4562 | 1.3 | -2 | -5

Part of the list above, as comma-separated lines:
molecule,PrP UTR inh,Mtb hypoxia inh,Mtb hypoxia inh growth,Bead autofluor,Sa RN4220 lethal,BJeLR viability,ugtP null kill
CC(C)NC(=O)c1ccc2c(=O)n(C3CCCC3)c(=S)[nH]c2c1,-6,4,-2,9824,6.7,13,-2
CC(=O)c1cc2c(cc1NC(=O)CN1CCCCCC1)OCO2,-13,7,3,3756,1.2,3,-6

Further structures follow:
SMILES | PrP UTR inh | Mtb hypoxia inh | Mtb hypoxia inh growth | Bead autofluor | Sa RN4220 lethal | BJeLR viability | ugtP null kill
O=C(NNC(=O)c1ccncc1)Nc1cccc([N+](=O)[O-])c1 | -6 | 0 | 16 | 4209 | -3.2 | . | -3
Clc1ccc(-c2csc(NN=Cc3cccnc3)n2)cc1 | . | -7 | 2 | . | -1.5 | . | 15
CCCCCCCc1n[nH]c(=S)n1Cc1ccccc1 | -18 | 3 | 4 | 3896 | 2.1 | -1 | -1
CC(C)NC(=O)NC(=O)CN1c2cccc3cccc(c23)S1(=O)=O | -26 | 8 | 14 | 3953 | 4.4 | -3 | -5
CC(C)C(NC(=O)c1ccc(C(C)(C)C)cc1)C(=O)Nc1ccc(N2CCOCC2)cc1 (stereo not given) | 14 | -1 | 8 | 4398 | -0.8 | . | -1
COc1ccc(C2CC(=O)c3sc(NC(C)=O)nc3C2)cc1 (stereo not given) | -26 | -1 | 5 | 2578 | -1.1 | -11 | 3
CC(Oc1cc(Cl)ccc1Cl)C(=O)NN=Cc1ccnn1C (stereo not given) | . | 0 | 7 | . | 9.7 | . | 2
Cc1ccc2c(c1)N(CC(=O)N1CCN(c3nc4ccccc4s3)CC1)C(=O)C(C)O2 (stereo not given) | . | 8 | 13 | 12920 | -0.9 | -10 | -3
COc1cccc2cc3c(=O)oc4ccccc4c3nc12 | -9 | 3 | -2 | 2485 | 2.8 | -3 | 9
COc1cccc(NC(=O)CN(C)C(=O)c2c(-c3ccccc3)noc2C)c1 | -13 | 11 | -7 | 5004 | 2.1 | -2 | 7
Cc1cccc(OC(C)C(=O)Nc2ccc(S(=O)(=O)N3CCCC3)cc2)c1 (stereo not given) | -2 | -14 | 4 | 7004 | -2.5 | -2 | -6
O=C(Nc1ccc(F)c(Cl)c1)c1cc(-c2ccco2)on1 | -9 | 8 | -4 | 4459 | 3.6 | 7 | -3
CCn1c(SCC(=O)O)nnc1-c1ccc2[nH]c(C)c(C)c2c1 | -11 | . | . | 2155 | . | 6 | .
Cn1cc(CN2CCCC(CNC(=O)c3ccc4c(c3)OCO4)C2)c2ccccc21 (stereo not given) | -2 | -1 | -1 | 5122 | 3.9 | 12 | -4
COc1ccc2c(c1)c(=O)cc(-c1ccccc1)n2C | -32 | 8 | 6 | 4961 | 2.6 | 11 | 0
Cc1nn(C)c(C(=O)N2CCN(C(=O)c3ccco3)CC2)c1[N+](=O)[O-] | 2 | 3 | 2 | 2351 | 6.2 | 8 | 4
COc1ccc(-c2cc3nc4c(c(N5CCC6(CC5)OCCO6)n3n2)CCC4)cc1 | -13 | 9 | 8 | 2632 | -6.3 | -4 | -17
COc1ccc(CC(=O)Nc2ccc(C(=O)NCC(C)C)cc2)cc1 | 3 | 2 | 0 | 14537 | 0.2 | 1 | 7
C=CCN1C(=O)C2(OCCCO2)c2cc(CCCC)ccc21 | -8 | 4 | -6 | 3308 | 2.0 | -9 | 14
O=C(COc1cccnc1[N+](=O)[O-])Nc1c(Cl)cccc1Cl | -6 | 3 | 2 | 3675 | 4.7 | . | 7
O=C(O)c1c(Cl)cccc1Nc1ccccc1 | . | 5 | 10 | 4000 | 9.3 | . | -20
Cc1nc2cc(C(=O)OCC(=O)Nc3cccc(Cl)c3)ccc2n1-c1ccccc1 | -14 | -3 | 4 | 2178 | -3.2 | -12 | 99*
Cc1ccc(C(=O)NN2C(=O)C3C4C=CC([C@@H]3C2=O)C42CC2)cc1 (stereo not given in full) | -27 | -1 | 0 | 4153 | 12 | -5 | -4
CC(C)(C)c1nnc2sc(SCC(=O)N3CCCc4ccccc43)nn2c1=O | -19 | 4 | 4 | 5921 | 1.5 | -4 | -1
Cc1cccc(C(=O)Nc2cccc(C(=O)NN=Cc3ccncc3)c2)c1 | . | 8 | -1 | . | 0.3 | . | 2

Next part.
SMILES | PrP UTR inh | Mtb hypoxia inh | Mtb hypoxia inh growth | Bead autofluor | Sa RN4220 lethal | BJeLR viability | ugtP null kill
CC(=O)c1ccc(O)c(CC=C(C)C)c1 | -44 | . | . | 5341 | 6.9 | 9 | 5
COc1cccc(NC(=O)C(=O)NCCCN2CCCC2=O)c1 | -38 | -6 | -2 | . | 1.6 | -2 | 2
CCOc1ccccc1N1CC(C(=O)N2CCc3ccccc3C2)CC1=O (stereo not given) | -12 | . | . | 2615 | -0.1 | -3 | 1
Cc1ccc2c(c1)cc(C(=O)N[C@@H](Cc1ccccc1)C(=O)O)n2C | -13 | -5 | 7 | 3743 | 4.9 | 4 | 9
COc1ccc(OC)c(C2=C/C(=C/c3ccccn3)C(=O)O2)c1 | -13 | -3 | 6 | 3891 | 2.9 | -4 | 5
O=C(CN(c1ccccn1)S(=O)(=O)c1ccc(F)cc1)Nc1ccc(F)cc1F | -23 | -3 | 5 | 2622 | 6.2 | 1 | 7
CCC(Cc1ccccc1)NC(=O)c1ccc2nc(N3CCOCC3)sc2c1 (stereo not given) | -13 | -15 | 1 | 6024 | 0.6 | 3 | 1
O=C(CC(=O)c1ccccc1)CS(=O)(=O)c1ccccc1 | -10 | 17 | 8 | 3858 | 5.1 | . | -3
Cc1ccc(NC(=O)Cn2nnc(-c3ccc4c(c3)OCO4)n2)cc1F | -13 | 10 | 2 | 5642 | -1.7 | -15 | 13
O=C(C1CCCN(S(=O)(=O)c2ccccc2)C1)N1CCCc2ccccc21 (stereo not given) | -7 | . | . | 4486 | 4.3 | 0 | 6
O=C1c2[nH]nc(-c3ccccc3O)c2C(c2ccccc2)N1Cc1ccco1 (stereo not given) | 13 | -1 | 0 | 6952 | 23 | 3 | 14
Cc1nn(CC(=O)NC(C)C)c(C)c1[N+](=O)[O-] | 12 | -1 | -5 | 4313 | -1.3 | 14 | 3
COc1cccc(CNC(=O)CCS(=O)(=O)c2ccc3c(c2)NC(=O)CS3)c1 | -11 | -3 | -2 | 4966 | 5.3 | 1 | 8
CC(=O)Nc1nc(CCl)cs1 | -26 | 6 | 2 | 3761 | 5.7 | . | 6
O=C(CCl)N1c2ccccc2Sc2c1ccc1ccccc21 | -10 | . | . | 3986 | 94* | . | 100*
O=C(c1ccc(Cl)cc1)[C@@H]1[C@@H]2C(=O)N(c3cccc4ccccc34)C(=O)[C@@H]2C2c3ccccc3C=NN21 (stereo not given in full) | 10 | -11 | -2 | 2088 | -5.1 | 4 | 11
O=C(CSc1nnnn1-c1cccc(F)c1)NC1CC1 | 0 | 6 | -2 | 2945 | 4.6 | . | 12
Clc1ccc(Cl)c2sc(N3CCCC3)nc12 | 1 | 10 | 10 | 4200 | 18 | 2 | -7
COc1cccc(N2CCN(C(=O)c3cccnc3)CC2)c1 | -3 | 6 | 5 | 8050 | 2.9 | 3 | 9
CCOC(=O)C1(CCc2ccccc2)CCN(Cc2cnc(N(C)C)s2)CC1 | -18 | -7 | 2 | 4523 | 4.6 | 6 | 6
c1ccc2c(c1)C(=NC1CCCCC1)NC2=NC1CCCCC1 | 3 | 1 | 13 | 8357 | 1.9 | 7 | -47
Cc1ccc2cc(CN(CC3CCCO3)C(=O)NC3CCCCC3)c(=O)[nH]c2c1C (stereo not given) | -2 | -11 | 8 | 5232 | -4.3 | 1 | -4
COc1nc(NCCO)nc(Nc2cc(Cl)ccc2OC)n1 | -12 | 6 | -2 | . | 7.2 | 13 | 0
Cc1cccc(C(=O)NCCc2csc(C)n2)c1 | -15 | 12 | 12 | 5960 | -1.5 | -5 | 0
CCN(CC)c1ccc(C(=O)NN=C(C)c2cccnc2)cc1 | . | -4 | 2 | . | -1.6 | . | 5
CCCCOCCCN1CC(=O)N2C(C)c3[nH]c4ccccc4c3C[C@H]2C1=O (stereo not given in full) | -47 | 14 | 3 | 3734 | 3.6 | -22 | 3
CCC(=O)NC(c1cccs1)c1cc([N+](=O)[O-])c2cccnc2c1O (stereo not given) | -13 | 3 | 0 | 2560 | 96* | 16 | 98*
CCCn1c(C)cc(/C=C(\C#N)C(=O)OCC(=O)NC(=O)NCC)c1C | -21 | . | . | 2360 | 1.5 | 7 | 3
